# ugtP null kill = growth inhibition of S. aureus ugtP deletion strain. S. aureus RN4220 ugtP deletion, OD600 growth, 16 h; some inactives read as strong as hits. growth inhibition, % (test concentration not listed). actives 0.54% (n = 330,000);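 active = z-score under -3 and OD600 up to 0.15 on both plates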;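 note: plate controls were untreated wells for no effect and antibiotic for full effect; wells of about 80 µL received 100 nL stock; the first replicate is given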
# Bead autofluor = counter-screen for toxin protease inhibitors: compound fluorescence | fluorescence intensity (test concentration not listed) | actives 3.1% (n = 360,000) | compound autofluorescence counterscreen, microsphere flow cytometry; stronger effect = higher value | AID 624483;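 active = at least 3 SD above the mean of all compounds, about 16000 in these data; inconclusive = too few beads counted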;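 note: 100 nL of 1 mM stock went into each well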
# Mtb hypoxia inh = reduces hypoxia-regulated biosensor signal in M. tuberculosis; M. tuberculosis hypoxia-regulated fluorescent reporter, fluorescence; fluorescence inhibition, % (no concentration beside the values); actives 0.1% (n = 300,000); AID 1159583;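 active = 35 to 45% if threefold the growth effect, above 45% if 1.5-fold the growth effect; inactive = the rest, general growth blockers included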;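 note: wells of about 50 µL received 100 nL stock; 0% = vehicle wells and 100% = reference inhibitor wells; whole bacteria with a GFP reporter of the hypoxia response; strong numbers were not always called active; many hits fall short of the cut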
# Sa RN4220 lethal = S. aureus RN4220 growth inhibition | actives 0.33% (n = 330,000) | AID 1259311 | OD600, 16 h | inhibition, % (test concentration not listed);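 active = z-score of -3 or lower and OD600 up to 0.18 on both plates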;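 note: plate controls were untreated cells for no effect and reference antibiotic for full effect; stock transfer was 100 nL into about 80 µL; one replicate is shown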
# BJeLR viability = kills HRASV12-expressing BJeLR cells | BJeLR (HRASV12) viability, CellTiter-Glo ATP luminescence, 48 h; reference of the scale not given here | inhibition, % (concentration not given with the values) | actives 0.17% (n = 300,000);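 active = replicate mean above 50%; inconclusive = above 50% but judged a plate artefact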;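 note: 50 nL library stock added to about 25 µL; numbers are from one replicate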
# PrP 5UTR inh = suppresses PrP 5' UTR mRNA reporter expression; cell-based PrP 5' UTR mRNA reporter, plate reader; inhibition, % (test concentration not listed); actives 0.35% (n = 340,000); AID 488862;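 active = every replicate at 50% or more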;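 note: 0 = median of the neutral control wells; tested in H4 reporter cells; numbers are from one replicate; inactives centre near -14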
# Mtb hypoxia inh growth = further read-out of Mtb hypoxia inh, marked with its call; growth inhibition, %; measured here: M. tuberculosis growth (absorbance);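 0% = vehicle and 100% = reference antibiotic; read after six days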
# The depositor's hits bear a star; u = inconclusive; x = no result given; & = joins results of further samples.
mol	ugtP null kill	Bead autofluor	Mtb hypoxia inh	Mtb hypoxia inh growth	Sa RN4220 lethal	BJeLR viability	PrP 5UTR inh
O=C(OCc1nnc(-c2ccccc2)o1)C1=COCCO1	1.8	4839	x	x	7.3	-0.2	-8.9
COc1cc(OC)c2c(-c3cccc(-c4ccc(F)c(Cl)c4)c3)cc(=O)oc2c1	-21.6	3919	2.8	-1.3	-1.4	x	-41.6
O=C(N1CCOCC1)N1CCN(S(=O)(=O)c2ccccc2)C1	4.9	4517	4.5	0.6	1.7	0.9	-19.0
Cc1cccc(C(=O)Nc2ccc(O)cc2C(=O)O)c1	9.9	4405	20.9	12.5	5.9	2.5	-5.3
Cn1cccc1/C=C1\C(=O)NC(=O)N(Cc2ccco2)C1=O	3.9	2752	-5.1	-2.7	6.3	7.1	-18.7
CCNc1nc(NCC)n2c(SC(C)C(=O)c3ccc(C)cc3)nnc2n1 (configuration not stated)	-0.6	2413	10.6	10.9	3.5	-1.4	-25.6
CC1Oc2ccccc2N(CC(=O)N2CCCCC2)C1=O (configuration not stated)	2.2	3603	-8.7	14.3	2.1	-9.8	-4.5
COc1ccc(C)cc1NC(=O)CSc1nnc(-c2ccc(C)cc2)o1	1.7	6138	x	x	3.4	0.6	-16.3
Cc1ccc(S(=O)(=O)N2CCCC(C(=O)N3CCN(C)CC3)C2)cc1 (configuration not stated)	-1.3	5488	9.7	6.3	1.9	4.9	-4.0
Cc1ccc(NC(=O)CNC(=O)C2CCCCC2)nc1	6.8	5836	3.9	8.3	-2.5	0.8	-23.4
COc1ccc(/C=C/C(=O)O)cc1S(=O)(=O)N1CCCC1	6.2	3678	11.7	-4.9	2.2	-11.6	-25.5
Cn1c(NC(=O)c2ccc(Cl)cc2Cl)cc(=O)n(C)c1=O	-19.1	5550	-8.3	0.0	2.2	-1.9	-2.3
CCN(CC)c1ccc(N2C(=O)c3ccccc3C2=O)cc1	0.4	3720	11.7	3.4	1.4	-3.4	-22.9
CCN1CCN(CCNC(=O)c2ccc(CS(=O)c3ccc(Br)cc3)o2)CC1 (configuration not stated)	0.0	6746	2.5	0.1	4.1	-2.9	-13.3
C/C(CCc1ccccc1)=N\NC(=O)c1ccccc1[N+](=O)[O-]	x	2372	x	x	x	8.0	-3.4
COc1ccc([C@H]2CC(=O)C=C(c3ccc(C)c([N+](=O)[O-])c3)C2)cc1	-6.4	3696	4.9	4.3	-3.9	x	-12.8
C[n+]1nc(Nc2ccccc2)sc1-c1ccc(O)cc1	-1.3	2981	3.8	-1.1	-2.0	0.6	5.5
N#CC1=C(N)N2C(=C(C#N)C1c1ccc(Br)cc1)Nc1ccccc12 (configuration not stated)	32.2	x	4.3	8.1	37.1	39.6	x
O=C1c2ccccc2C(O)N1c1cccnc1 (configuration not stated)	9.8	4246	8.3	9.4	2.8	1.5	-10.2
COc1ccccc1CC(=O)Nc1cc(C)ccn1	-0.6	4063	-3.6	10.0	2.0	8.2	-29.3
O=C(Nc1cccnc1)c1cc(-c2ccc(Cl)cc2Cl)on1	-13.5	5326	5.6	2.1	7.6	6.0	-99.5
Oc1ccc(/C=N/NC(=S)NCc2ccco2)cc1	x	2560	x	x	x	-3.8	-3.8
O=C(CCC(=O)N1CCCC1)N1CCCC1	3.0	5225	8.8	3.9	1.9	-5.5	-15.5
O=C(Cn1cnc([N+](=O)[O-])n1)N/N=C/c1ccccc1O	x	u	x	x	x	8.5	-4.4
COCC(=O)Nc1cc(Cl)ccc1C(F)(F)F	6.2	x	-4.9	-5.9	1.3	-3.5	x

mol	ugtP null kill	Bead autofluor	Mtb hypoxia inh	Mtb hypoxia inh growth	Sa RN4220 lethal	BJeLR viability	PrP 5UTR inh
c1ccc2c(CSc3nnc(-c4ccncc4)o3)cccc2c1	8.5	23894*	10.9	11.4	2.9	5.9	-42.5
CC(=O)NC12CC3CC(C1)CC(C(=O)N1CCN(S(=O)(=O)c4cccs4)CC1)(C3)C2	2.1	4172	6.2	3.4	2.0	x	-11.9
Cc1ccc2c(c1)C(c1ccccc1)NCC(=O)N2 (configuration not stated)	1.1	2833	17.9	5.7	-10.7	6.2	-19.7
CCOC(=O)N1CCN(c2nc(-c3ccc(OC)cc3)no2)CC1	4.4	12209	2.9	6.0	10.4	-4.3	x
C=CCCC(=O)Nc1ccc(COC(=O)N2CCOCC2)cc1	-1.1	7114	6.7	11.7	4.1	-5.6	-40.9
COc1ccc(C(=O)N/C(=C\c2cn(C)c3ccccc23)C(=O)NCCN2CCOCC2)cc1OC	-1.4	4302	-2.8	-11.0	2.4	-0.1	6.7
CC(C)N(C(=O)COC(=O)c1ccccc1C(=O)c1ccc(Cl)c([N+](=O)[O-])c1)C(C)C	7.3	7154	13.5	6.9	1.8	8.7	-13.4
O=c1oc(C2(O)CCCCC2)cc2ccc(Br)cc12	-0.2	3203	-3.0	5.4	8.7	x	-11.0
COC(=O)c1cccc(N(C(=O)c2cnccn2)C(C(=O)NCc2ccccc2)c2ccco2)c1 (configuration not stated)	7.8	7816	0.8	-0.6	5.2	-3.1	-31.5
COc1ccc(N2CCN(C(=O)COC(=O)c3cccc(S(=O)(=O)Nc4cccc(C)c4)c3)CC2)cc1	-8.6	u	6.5	4.4	6.3	-6.4	-5.1
Cc1ccccc1-n1cc(CNC(=O)CC2C(=O)NCCN2C/C=C/c2ccccc2)cn1 (configuration not stated)	6.9	6045	3.0	14.0	5.1	-11.0	-1.1
CN(c1ccccc1)S(=O)(=O)c1ccc2[nH]c(=O)oc2c1	-5.1	3901	-4.3	13.3	2.3	-9.6	8.2
CC1CCN(CCOc2ccc(C(=O)c3ccccc3)cc2)CC1	-0.5	4310	-9.7	3.7	-2.0	2.8	-13.2
CCOc1ccc(NC(=O)CSC2=NCCN2)cc1	1.5	1931	-2.9	0.1	0.8	0.6	-25.0
O=C1OC(Nc2ccccn2)c2ccccc21 (configuration not stated)	-7.2	4200	4.2	4.7	18.2	-14.5	-16.9
Nc1c2c(nc3ccccc13)CSCC2	10.3	6652	16.3	8.0	0.1	6.3	-18.5
O=C(CNC(=O)c1ccc(OC(F)F)cc1)Nc1cccc(S(=O)(=O)N2CCCC2)c1	3.0	6250	-6.7	1.0	1.3	-3.6	6.1
C#CCOCCOCCOCCNc1nc(N2CCN(C(=O)C(C(C)CC)n3cc(CCCCN)nn3)CC2)nc(N2CCN(C(=O)C(C(C)CC)n3cc(CCCN=C(N)N)nn3)CC2)n1 (configuration not stated)	0.8	x	-4.3	24.8	-0.7	x	x
Nc1ccc(O)c(-c2nc3ccccc3s2)c1	-1.6	3827	x	x	-3.6	3.0	-27.7
Cc1cc(=O)n2nc(N3CCCC3C(=O)Nc3cccc(F)c3)sc2n1 (configuration not stated)	-3.2	6356	3.2	5.4	3.5	3.1	-7.0
COc1cc(/C=C2\SC(=S)N(Nc3ncc(C(F)(F)F)cc3Cl)C2=O)ccc1O	-30.1	3843	-68.5	-4.8	-0.7	1.5	-25.6
O=C(N/N=C\c1cccnc1)c1ccccc1O	x	3418	x	x	x	-8.2	-29.3
Cc1cccc(NC(=O)c2ccc(COc3cccc4ccccc34)o2)n1	16.4	2054	-4.3	0.6	21.6	-5.2	-15.6
CCOC(=O)c1c(NC(=O)CSc2ncn[nH]2)sc(C(C)=O)c1C	2.3	6491	4.3	4.4	9.2	3.4	-6.8
O=C1CC(c2ccc(OC3OC(CO)C(O)C(O)C3O)cc2)Oc2cc(O)ccc21 (configuration not stated)	-5.8	x	2.3	1.2	-0.5	x	x

mol	ugtP null kill	Bead autofluor	Mtb hypoxia inh	Mtb hypoxia inh growth	Sa RN4220 lethal	BJeLR viability	PrP 5UTR inh
COc1cc(/C=C(\C#N)C(=O)Nc2ccc3ccccc3c2)c([N+](=O)[O-])cc1OC	0.9	2542	1.3	6.5	3.9	-5.2	-13.0
COc1cccc(OC)c1C(=O)Nc1ccccc1NC(=O)c1c(OC)cccc1OC	6.7	3789	17.0	1.8	6.0	-1.8	-27.7
COc1ccc(NC(=O)CC2SC(N3CCOCC3)=NC2=O)c(OC)c1 (configuration not stated)	4.1	6793	4.7	-2.2	0.3	x	-6.5
O=C(C1=CC(c2ccc3c(c2)OCO3)CC(OCCCCO)O1)N1CCN(Cc2ccc3c(c2)OCO3)CC1 (configuration not stated)	1.8&-17.6	x	7.4&12.0	10.5&11.2	3.2&4.5	x	x
O=C(Nc1ccc(OC(F)(F)C(F)F)c(NC(=O)c2cccc(F)c2)c1)c1cccc(F)c1	-13.6	2551	-8.2	3.0	7.2	8.5	-20.8
O=[N+]([O-])c1ccc(O)c(/C=N\N=C2c3ccccc3-c3ccccc32)c1	x	2202	x	x	x	13.8	-12.4
Cc1cccc(NC(=O)CSCC(=O)OCc2ccccn2)c1	7.7	4594	0.4	2.4	2.9	1.1	5.9
COc1cccc(C(=O)Nn2c(C)nnc2-n2nc(C)cc2C)c1	3.1	4183	x	x	2.5	5.5	-8.9
CCNc1c2c(nc3ccccc13)CC(C)(C)CC2=O	14.3	2465	-5.9	-12.6	27.0	-6.4	-9.3
Cc1ccc(NC(=O)c2ccc3nsnc3c2)c(Cl)c1	0.8	4470	12.8	5.4	6.1	15.2	-17.3
CCN(CC(=O)Nc1c(F)cccc1F)C(=O)Cc1c(C)nc2ccccc2c1C	1.2	8334	-0.8	-5.9	2.7	x	-8.4
CC1(C)CC(=O)C2=C(C1)OC(N)=C(C#N)C2C1CC=CCC1 (configuration not stated)	0.5	22645*	-5.3	-4.4	4.3	-1.9	-10.7
CCOC(=O)CSc1nnc(CSc2nc(C)cc(C)n2)n1Cc1ccco1	-2.5	4460	4.0	7.6	5.1	0.8	-8.6
O=C(Cn1c(=O)sc2ccccc21)NCCOc1ccccc1F	4.9	6306	-6.4	1.1	1.1	-1.6	-23.6
CCCOc1ccc(C=c2sc3ncnn3c2=O)cc1	-1.8	x	-2.4	11.6	1.3	x	x
COc1ccc(C)cc1NC(=O)C1CCN(S(=O)(=O)c2cccc3nonc23)CC1	6.2	5649	-3.0	-1.8	6.8	-3.6	-50.3
CC(Sc1ccccc1)C(=O)Nc1ccc(N2CCOCC2)cc1 (configuration not stated)	2.6	9122	5.8	-1.5	0.9	6.4	-21.1
O=C1c2ccccc2C(=O)N1c1ccc(Cl)cc1	-3.9	x	-10.9	-10.0	-1.8	2.8	x
CC(C)c1ccc(N(C(=O)CNC(=O)c2ccco2)C(C(=O)NC2CCCC2)c2ccncc2)cc1 (configuration not stated)	4.1	2853	7.0	3.1	-3.1	4.2	-14.9
CCN(CC(=O)Nc1cc(Cl)ccc1C)C(=O)c1cc(S(=O)(=O)N2CCCCCC2)ccc1OC	2.7	4447	2.4	-6.9	4.2	16.3	-25.7
CCCCCCC(C(C)O)n1cnc2c(N)ncnc21 (configuration not stated)	1.9	x	4.5	12.3	6.6	x	x
COc1cc(C2SCC(=O)N2CCCN(C)C)cc(OC)c1OC (configuration not stated)	3.4	2549	3.8	9.7	1.4	9.1	-19.2
COc1ccc(C)cc1Nc1cc(C)nc2ncnn12	1.1	4278	x	x	1.8	-6.7	9.6
CCc1cccc(NC(=O)c2cc(S(=O)(=O)N(C)C)ccc2N2CCCC2)c1	1.4	5173	3.1	-6.8	8.9	-8.7	-4.0

# Four of the compounds above, with each value named:
> O=C(Cn1c(=O)sc2ccccc21)NCCOc1ccccc1F
  ugtP null kill: 4.9; Bead autofluor: 6306; Mtb hypoxia inh: -6.4; Mtb hypoxia inh growth: 1.1; Sa RN4220 lethal: 1.1; BJeLR viability: -1.6; PrP 5UTR inh: -23.6

> CCCOc1ccc(C=c2sc3ncnn3c2=O)cc1
  ugtP null kill: -1.8; Bead autofluor: x; Mtb hypoxia inh: -2.4; Mtb hypoxia inh growth: 11.6; Sa RN4220 lethal: 1.3; BJeLR viability: x; PrP 5UTR inh: x

> COc1ccc(C)cc1NC(=O)C1CCN(S(=O)(=O)c2cccc3nonc23)CC1
  ugtP null kill: 6.2; Bead autofluor: 5649; Mtb hypoxia inh: -3.0; Mtb hypoxia inh growth: -1.8; Sa RN4220 lethal: 6.8; BJeLR viability: -3.6; PrP 5UTR inh: -50.3

> CC(Sc1ccccc1)C(=O)Nc1ccc(N2CCOCC2)cc1 (configuration not stated)
  ugtP null kill: 2.6; Bead autofluor: 9122; Mtb hypoxia inh: 5.8; Mtb hypoxia inh growth: -1.5; Sa RN4220 lethal: 0.9; BJeLR viability: 6.4; PrP 5UTR inh: -21.1
